Mtb growth: M. tuberculosis H37Rv growth inhibitors, H37Rv strain (AID 1626). M. tuberculosis H37Rv growth inhibition; higher % means a stronger effect. one-dose inhibition, % at 10 µM; IC50 in µM for titrated hits. 220,000 tested, 0.95% active;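 active = confirmed in a dose series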;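 note: bacteria incubated seven days before Alamar blue readout; 0% = bacteria only wells and 100% = bacteria with antibiotic wells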
RecA splice inh: Mtb RecA intein splicing inhibition; inhibition, %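 (about 9 µM by stock and volumes)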; 290,000 tested, 0.75% active; cell-free RecA intein splicing, fluorescence; in the data active = inhibition above about 30%;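 note: 0% = vehicle wells and 100% = reference inhibitor control wells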
Target sequence (P9WHJ3 whole entry, looked up, canonical isoform): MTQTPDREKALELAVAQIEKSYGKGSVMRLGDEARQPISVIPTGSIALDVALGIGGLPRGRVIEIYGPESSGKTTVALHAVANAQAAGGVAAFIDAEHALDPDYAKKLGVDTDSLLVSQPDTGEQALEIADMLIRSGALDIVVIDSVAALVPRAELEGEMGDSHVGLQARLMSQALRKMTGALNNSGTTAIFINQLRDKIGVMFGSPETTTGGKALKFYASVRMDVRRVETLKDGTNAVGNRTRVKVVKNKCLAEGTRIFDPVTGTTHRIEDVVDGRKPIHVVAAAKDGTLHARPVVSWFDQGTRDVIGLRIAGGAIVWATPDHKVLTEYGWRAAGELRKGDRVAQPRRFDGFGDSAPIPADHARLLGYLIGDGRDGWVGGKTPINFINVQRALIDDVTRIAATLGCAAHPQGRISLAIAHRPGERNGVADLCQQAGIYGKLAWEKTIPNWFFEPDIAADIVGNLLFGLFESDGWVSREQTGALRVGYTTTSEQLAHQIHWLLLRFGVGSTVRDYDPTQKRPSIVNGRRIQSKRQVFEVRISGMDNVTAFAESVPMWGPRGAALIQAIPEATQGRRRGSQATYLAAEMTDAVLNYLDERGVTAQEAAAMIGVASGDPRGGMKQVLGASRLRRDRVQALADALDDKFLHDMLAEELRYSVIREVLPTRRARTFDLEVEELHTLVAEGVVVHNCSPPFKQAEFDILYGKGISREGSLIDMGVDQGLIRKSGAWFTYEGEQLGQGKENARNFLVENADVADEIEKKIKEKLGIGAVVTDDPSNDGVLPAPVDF
Mtb betalactam: beta-lactam sensitization of Mtb H37Rv; AID 434955; M. tuberculosis H37Rv growth with meropenem, percent inhibition; hits of this screen are not shown here; inhibition, % at 25 µM; 330,000 tested, 0.27% active;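 active = about 74% or more and at least 40 points above the plate without the antibiotic, then above 30% in a dose series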;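 note: growth measured after seven days incubation then overnight dye step; 0% = bacteria only wells and 100% = bacteria with antibiotic; twin plates without the antibiotic show which effects depend on it; some results filed as inactive read as strong as hits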
Arbovirus anti: arbovirus infection inhibition. AID 1251. arbovirus infection cell-based antiviral screen. 200,000 tested, 0.37% active. inhibition, % at 10 µM;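 active = inhibition from about 30%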;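 note: bluetongue infection of BSR cells; cell survival read as ATP light after 72 h; 0% = infected wells without compound and 100% = uninfected wells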
YopH PTP inh: YopH (Yersinia) phosphatase inhibition | fluorescence Ex485/Em525 | inhibition, %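 (about 10 µM by stock and volumes)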 | 140,000 tested, 0.16% active | AID 898;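 active = inhibition of 50% or more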;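 note: controls were vehicle for no effect and minimum signal wells for full effect; inactives centre near -20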
* hit, by the source's call; . = not tested or not shown. Only part of the results is shown (hit frequency here may not be typical).

SMILES	Mtb growth	RecA splice inh	Mtb betalactam	Arbovirus anti	YopH PTP inh
CCCn1c(SCC(=O)N2c3ccc(F)cc3CCC2C)nnc1-c1ccccn1 (configuration not stated)	-5%	1.6	-4	-9	-6
Cc1ccc2c(c1)sc(C)[n+]2CCCS(=O)(=O)[O-]	-7%	-3.4	6	2	.
O=C(Nc1ccc2c(c1)OC1(CCCC1)O2)C1CC1	-2%	-1.8	10	-13	0
O=C(NC1CCCC1)c1cc(-c2ccccc2)nc2ccccc12	.	0.1	15	.	.
CSc1ccccc1NC(=O)c1cc(C2CC2)on1	24µM*	1.9	94	-10	-41
Cc1cccc(-n2nc3c(c2NC(=O)C(C)C)CS(=O)(=O)C3)c1C	.	-0.4	6	.	.
C=CCNC(=O)CSc1nc2scc(-c3ccco3)c2c(=O)n1CC=C	-9%	-9.3	-5	.	.
O=C(O)Cc1sc(-c2ccc(Cl)cc2)nc1-c1ccccc1	-6%	3.7	-5	14	-52
COCCn1nnnc1C(c1cc2ccc(C)cc2[nH]c1=O)N(Cc1ccco1)Cc1cccs1 (configuration not stated)	7%	12	8	-23	-27
CC1CCCCC12NC(=O)N(CC(=O)Nc1sc3c(c1C(N)=O)CCC3)C2=O (configuration not stated)	.	-0.8	-6	19	-5
CCOc1ccc(OCC)c(NC(=O)CSc2nnc(C3CC3)n2CC)c1	.	1.3	-6	.	.
O=C(CN1C(=O)c2ccccc2C1=O)NCc1ccc(N2CCOCC2)cc1	-11%	-2.7	-8	.	.
COc1cc(/C=N\NC(=O)c2ccc(-c3ccccc3)cc2)cc(OC)c1OC(C)=O	.	-2.5	1	.	.
O=C(CCN1C(=O)C2C3CCC(C3)C2C1=O)OCC(=O)c1ccccc1 (configuration not stated)	.	1.8	2	.	.
c1ccc(CNc2ncnc3sc4c(c23)CCC4)nc1	2%	0.2	48	-3	-28
NC(=S)c1ncc(C(F)(F)F)cc1Cl	4%	2.4	-9	.	.
COc1ccc(C(=S)N2CCCC2)cc1OC	-6%	-2.4	6	8	-23
Cc1ccc(C(=O)N2CC(=O)Nc3ccccc32)o1	3%	-0.6	2	-10	-29
CCOC(=O)C1CCN(S(=O)(=O)c2ccc3[nH]c(=O)c(=O)[nH]c3c2)CC1	4%	-3.5	-8	4	.
CC(C)c1ccc(NS(=O)(=O)c2ccc(N3C(=O)CCC3=O)cc2)cc1	-8%	-0.1	-5	.	.
Cn1c(CO)nc2cc(N)ccc21	1%	-1.4	-1	0	-31
CC(C)CN1CC(=O)N2C(c3ccccc3)c3[nH]c4ccccc4c3C[C@H]2C1=O (some centres not stated)	.	3.3	4	.	.
N#Cc1c(C(F)(F)F)cc(-c2ccccc2)n(N)c1=O	.	-2.0	6	.	.
CCCCCCN=C(C)C1=C(O)C(C(=O)OC)C(C)(C)CC1=O (configuration not stated)	5%	-1.5	-7	1	-1
Cc1ccc(NC(=O)c2ccncc2)cc1S(=O)(=O)N(C)C	-4%	0.3	39	-8	-15

Next section, overlapping the part above by 3 compounds.
SMILES	Mtb growth	RecA splice inh	Mtb betalactam	Arbovirus anti	YopH PTP inh
N#Cc1c(C(F)(F)F)cc(-c2ccccc2)n(N)c1=O	.	-2.0	6	.	.
CCCCCCN=C(C)C1=C(O)C(C(=O)OC)C(C)(C)CC1=O (configuration not stated)	5%	-1.5	-7	1	-1
Cc1ccc(NC(=O)c2ccncc2)cc1S(=O)(=O)N(C)C	-4%	0.3	39	-8	-15
O=C(CSc1ccccc1)Nc1ccc(C(=O)Nc2cccc(O)c2)cc1	-1%	-0.7	-1	-3	.
CCN(CC)C(=O)C(=O)N/N=C/c1ccc(Cl)cc1Cl	-1%	-1.9	1	2	.
O=C(Nc1ccc2c(c1)OCCO2)c1ccc(Br)c(S(=O)(=O)N2CCOCC2)c1	0%	.	.	1	-47
Cc1cc(C)cc(N(C(=O)c2csnn2)C(C(=O)NC(C)(C)C)c2ccccn2)c1 (configuration not stated)	-2%	-1.1	-2	-1	.
CN(C)c1ccc(NC(=O)CN2C(=O)CN=C(c3ccccc3)c3cc(Cl)ccc32)cc1	8%	1.7	4	-26	-29
CC(C)N=C1CC(C)(C)CC(=O)/C1=C(/O)CCCN1C(=O)c2ccccc2C1=O	2%	2.9	1	4	.
Cc1c(Cl)cccc1NC(=O)CSC(N)=O	3%	-2.6	-12	8	.
Cc1ccc(O)c(NC(=O)Cc2ccc3ccccc3c2)c1	.	2.0	9	.	.
c1ccc2c(c1)nnn2CNc1nccs1	-5%	-0.2	-7	-3	-35
CCc1n[nH]c(=S)n1/N=C/c1ccccn1	.	-0.6	-1	.	.
Cc1cc(OC(C)C(=O)NCC(O)c2ccccc2)c2c3c(c(=O)oc2c1)CCC3 (configuration not stated)	.	-2.6	2	.	.
COc1ccc(NC(=O)C2CCCN(C(=O)Nc3cccc(OC)c3)C2)cc1 (configuration not stated)	.	-2.0	1	.	.
C/C(=N\Nc1ccc([N+](=O)[O-])cc1)c1cc2ccccc2o1	5%	-6.4	-4	-9	.
O=C1c2ccccc2C(O)(c2ncc[nH]2)N1C1CCCCC1 (configuration not stated)	-2%	-1.2	1	-5	-31
CN(Cc1ccccc1)C(=O)C1CCN(S(=O)(=O)c2ccc3nc4c(c(C(=O)O)c3c2)CCCC4)CC1	.	-0.6	-1	.	.
Cn1c(=O)c2c(nc(CN3CCN(C(=O)c4ccco4)CC3)n2Cc2ccccc2)n(C)c1=O	-6%	0.9	0	6	-38
O=C(NCCc1c[nH]c2ccccc12)C(=O)NCC1OCCN1S(=O)(=O)c1cc(F)ccc1F (configuration not stated)	-4%	2.4	8	.	.
O=C(CSc1nc2ccccc2s1)c1ccc(O)cc1O	.	-0.6	0	.	.
CCCCCCC(=O)N(O)C1CC(=O)N(c2ccc(F)cc2)C1=O (configuration not stated)	0%	-0.5	51	.	.
Cc1ccc(CNC(=O)c2cc(=O)c3ccc(C)cc3o2)cc1	.	0.0	2	.	.
CCN1CCN(CCCNC(=O)C2c3ccccc3C(=O)N(C)C2c2ccc(OC)cc2)CC1 (configuration not stated)	-9%	-3.0	4	7	-4
Cn1c(N)c(C(=O)COC(=O)C2CCC(C(C)(C)C)CC2)c(=O)n(C)c1=O (configuration not stated)	4%	-0.3	0	6	-15
CC(C)(C)n1ncc2c(=O)n(Cc3ccc(Cl)cc3Cl)cnc21	5%	-1.7	4	3	-22
CC(C)Cn1c(N2CCN(C(=O)/C=C/c3ccccc3)CC2)nc2ccccc21	22µM*	4.2	93	-6	.
O=C(COC(=O)c1cccc(S(=O)(=O)N2CCc3ccccc3C2)c1)NCc1ccco1	-7%	3.4	0	10	-17

More results:
SMILES	Mtb growth	RecA splice inh	Mtb betalactam	Arbovirus anti	YopH PTP inh
CC(=O)Nc1sc(C)c(C)c1C(=O)OCCOc1ccccc1	.	2.2	0	.	.
CC[N+](CC)(CC#CCO)CC#Cc1ccccc1	2%	-1.4	-8	3	.
NC(=O)[C@H]1CC2(CC(c3cccc(NC(=O)COc4ccc(Cl)cc4)c3)=NO2)CN1C(=O)[C@H]1CCC(=O)N1 (some centres not stated)	-7%	0.0	-5	.	.
Cc1nn(-c2ccccc2)c(C)c1NC(=O)COc1ccc(Cl)cc1Cl	-1%	-1.1	7	6	-13
O=C(Nc1ccc2c(c1)oc1ccc(S(=O)(=O)N3CCCC3)cc12)C1CC1	9%	1.1	13	9	-3
O=C(Nc1cccc(C(=O)O)c1)/C(=C\c1ccco1)NC(=O)c1ccc(Br)o1	.	1.0	0	.	.
CC1CCCC(C)N1C(=O)COC(=O)CNC(=O)C12CC3CC(CC(C3)C1)C2 (configuration not stated)	.	1.2	-3	.	.
O=C(N/N=C/c1ccco1)c1ccc(NC(=O)c2ccccc2Cl)cc1	-3%	-0.2	0	-9	.
COc1cc(C#N)ccc1OCC(=O)Nc1ccc(C)c(S(=O)(=O)N2CCOCC2)c1	2%	-0.1	-6	4	.
COC(=O)CSc1nc2ccccc2c(=O)n1C	2%	1.6	-3	3	-36
C[C@@H](C(=O)Nc1nc2ccc(F)cc2s1)N1C(=O)C2CC=CCC2C1=O (some centres not stated)	4%	2.1	91	8	.
CN(C)S(=O)(=O)c1ccc(NC(=O)COC(=O)c2ccccn2)cc1	-6%	1.3	-2	8	28
COc1ccccc1-n1ccnc1SCC(=O)NC1CCCC1	6%	-3.0	-14	-2	.
CSCCC(NC(=O)c1ccccc1)C(=O)OCC(=O)Nc1ccc(C)c(Cl)c1 (configuration not stated)	-4%	6.3	-8	-2	-19
COc1ccc(S(=O)(=O)N2CCOC2CNC(=O)C(=O)NCc2ccc(F)cc2)cc1OC (configuration not stated)	.	2.0	-1	.	.
Cc1sc2ncn(CCn3cnc4sc(C)c(C)c4c3=O)c(=O)c2c1C	1%	-2.8	-12	6	-12
CC(=O)N1CCc2cc(S(=O)(=O)CCC(=O)NCc3ccc(F)cc3)ccc21	.	-6.1	4	.	.
COc1ccccc1NC(=S)NCCc1ccc(Cl)cc1	-5%	2.3	6	7	6
CC12CC(NC(=O)N1CCc1ccccc1)c1cc(Cl)ccc1O2 (configuration not stated)	2%	2.4	-5	-5	15
O=C(COCC(=O)N/N=C/c1ccccc1F)N/N=C/c1ccccc1F	-2%	2.4	1	-10	-54
CCCc1nnc(NC(=O)CCC(=O)NCc2ccccc2)s1	.	-1.6	-6	.	.
CCN(CC)S(=O)(=O)N1CCC(C(=O)NCC2COc3ccccc3O2)CC1 (configuration not stated)	-3%	-1.0	-4	6	-34
CCOC(=O)C1=C(C)NC(C)=C(C(=O)OCC)C1/C=C/c1ccccc1	5%	-4.7	-8	1	-38
Cc1ccc(CSCc2ccc(C(=O)NCC3CCCO3)o2)cc1 (configuration not stated)	6%	0.9	-10	0	.
Cc1cc(N)n(-c2nc3ccccc3s2)n1	0%	-2.1	2	16	.

Whole records, quoted from the list.
CN(C)c1ccc(NC(=O)CN2C(=O)CN=C(c3ccccc3)c3cc(Cl)ccc32)cc1 is listed with Mtb growth: 8%; RecA splice inh: 1.7; Mtb betalactam: 4; Arbovirus anti: -26; YopH PTP inh: -29
CCCCCCN=C(C)C1=C(O)C(C(=O)OC)C(C)(C)CC1=O (configuration not stated) is listed with Mtb growth: 5%; RecA splice inh: -1.5; Mtb betalactam: -7; Arbovirus anti: 1; YopH PTP inh: -1

Six entries from above, ordered by SMILES length, ascending:
SMILES	Mtb growth	RecA splice inh	Mtb betalactam	Arbovirus anti	YopH PTP inh
CC[N+](CC)(CC#CCO)CC#Cc1ccccc1	2%	-1.4	-8	3	.
CCCc1nnc(NC(=O)CCC(=O)NCc2ccccc2)s1	.	-1.6	-6	.	.
CC(=O)Nc1sc(C)c(C)c1C(=O)OCCOc1ccccc1	.	2.2	0	.	.
CCN(CC)S(=O)(=O)N1CCC(C(=O)NCC2COc3ccccc3O2)CC1 (configuration not stated)	-3%	-1.0	-4	6	-34
O=C(Nc1ccc2c(c1)oc1ccc(S(=O)(=O)N3CCCC3)cc12)C1CC1	9%	1.1	13	9	-3
C[C@@H](C(=O)Nc1nc2ccc(F)cc2s1)N1C(=O)C2CC=CCC2C1=O (some centres not stated)	4%	2.1	91	8	.

The listing continues:
SMILES	Mtb growth	RecA splice inh	Mtb betalactam	Arbovirus anti	YopH PTP inh
CN1CCC(=O)N(CCOc2ccccc2)CC1	.	-2.2	-6	.	.
NC(=O)C1(NC(=O)[C@@H]2CC3(CC(c4cccc(NC(=O)c5cc([N+](=O)[O-])cc([N+](=O)[O-])c5)c4)=NO3)CN2C(=O)c2ccccc2)CC1 (some centres not stated)	47%	5.5	100	7	12
Cc1nn(C)cc1CN1CCC(CO)(CCOc2ccccc2)CC1	0%	-0.1	-12	-14	.
COc1ccc(Cc2nn3c(-c4ccccc4Br)nnc3s2)cc1	5%	8.4	0	-9	-25
COc1ccc(NC2CCCN(C(=O)C3(C)CCCCC3)C2)cc1 (configuration not stated)	.	0.6	0	.	.
C/C(=N/NC(=O)c1cccs1)c1ccc(NC(=O)COc2ccc(Cl)cc2Cl)cc1	-2%	.	42	1	-36
O=C(Nc1ccc(N2CCN(Cc3ccccc3Cl)CC2)cc1)c1cccnc1	0%	-1.2	-3	-3	-16
CN(C)N1C(=O)CC(N2CCCCC2)C1=O (configuration not stated)	4%	2.3	-1	5	.
Cc1cc(NC(=O)C2CC(c3cccc(Br)c3)=NO2)no1 (configuration not stated)	-5%	.	5	2	-22
CN1C(=O)C(C)(C)N(C(=O)c2cccc([N+](=O)[O-])c2)c2ccccc21	.	-1.3	5	.	.
CCCc1nc2oc3c(NCCOCCO)ncnc3c2c2c1COC(C)(C)C2	-9%	-0.1	-9	5	-27
COc1ccc(-c2nnc(SCC3CCCO3)n2C)cc1 (configuration not stated)	7%	1.8	-4	-2	.
CCOC(=O)C1=NN(c2ccccc2)C(c2ccccc2)CC1=O (configuration not stated)	-4%	1.6	34	-3	-85
CCc1ccc(C(=O)Nc2nc(C)cs2)s1	.	3.3	7	.	.
C=CCn1c(-c2cccc(OC)c2)n[nH]c1=S	-2%	0.0	-7	-7	-35
COc1ccc2oc(C(=O)N3CCN(S(=O)(=O)c4cccc([N+](=O)[O-])c4)CC3)c(C)c2c1	.	2.5	-13	.	.
CC(C)C(NS(=O)(=O)c1cccs1)C(=O)N1CCc2ccccc2C1 (configuration not stated)	-1%	3.1	-6	-4	-10
Cc1[nH]n(-c2ccccc2)c(=O)c1C=NCCc1ccccc1	1%	5.0	7	-9	.

Source: PubChem
